From PubChem BioAssay
AID504770: growth inhibition of E. coli YBA685, primary screen, V. cholerae RctB inhibitors. z-score (test concentration not listed). E. coli YBA685 rctB-dependent plasmid, OD600 growth, 3 h; stronger effect = lower value. 0.27% of 130,000 active;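 active means z-score under -2 on both plates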;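 further: wells of about 30 µL received 100 nL stock; score is relative to mean and SD of the test wells; the first replicate is given; strong numbers were not always called active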
CapD inh: Bacillus anthracis CapD inhibitors, primary screen, biochemical, fluorescence intensity. CapD gamma-glutamyltranspeptidase (Bacillus anthracis Ames Ancestor). purified CapD enzyme, fluorescence intensity read-out; stronger effect = lower value; some hits fall short of the stated cut. z-score (no concentration beside the values). 0.23% of 140,000 active. AID 492967, 2010;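 active means z-score under -4 in either of two replicates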;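 further: stock transfer was 100 nL into about 40 µL; score is relative to mean and spread of the plate; one replicate is shown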
* = called active by the depositor; nt = no result given; & = joins results of further samples.

A first look, two compounds:
Every second line gives: AID504770, CapD inh
1: CN(C)c1ccc(C2(c3ccc(N(C)C)cc3)OC(=O)c3ccccc32)cc1
    nt, -0.45
2: CC(=O)OCC(=O)CC12CC3CC(CC(C3)C1)C2
    0.9, nt

This part in full, previewed entries included:
Every second line gives: AID504770, CapD inh
1: CN(C)c1ccc(C2(c3ccc(N(C)C)cc3)OC(=O)c3ccccc32)cc1
    nt, -0.45
2: CC(=O)OCC(=O)CC12CC3CC(CC(C3)C1)C2
    0.9, nt
3: CC1(C)CC(=O)C=C(NNC(=O)COc2ccccc2)C1
    -1.1, -0.24
4: CCNc1nc(OC)nc(SCC(=O)OC)n1
    -0.25, nt
5: COC(=O)c1sccc1-n1cccc1
    -1.1, 0.52&-0.49
6: CN(C)/C=C(/C(=O)c1ccc(Cl)cc1Cl)S(=O)(=O)c1ccccc1
    nt, -0.11
7: COc1ccc(N2CCN(C(=O)c3cccs3)CC2)cc1
    -0.05, nt
8: O=C(Nc1ccccc1)OC(CN1CCCCC1)C(F)(F)F (stereo not drawn)
    -0.45, 0.35
9: CCOC(=O)CNC(=O)c1sc2ncnc(N3CCN(c4ccccc4F)CC3)c2c1C
    nt, 0.19
10: CCOC(=O)c1c(-c2ccc(OC)cc2)oc2ccc(OCC)cc12
    -0.4, 73
11: O=C(CSc1nc2ccccc2s1)Nc1ccc(Cl)c(Cl)c1
    nt, -0.33
12: Cc1c(C)c2ccc(OCC(N)=O)cc2oc1=O
    0.9, 69
13: Cc1ccc(NC(=O)c2c(-n3c(C)ccc3C)sc3c2CCCC3)cc1
    -0.55, 10
14: CCOC(=O)CSc1cc(Nc2ccc(Br)cc2)ncn1
    -0.75, -0.73
15: CCOc1ccc(CN(C)CC(O)COCc2ccc(OC)cc2)cc1OC (stereo not drawn)
    -0.3, nt
16: Cc1nc(NC(=S)NC(=O)c2ccc(-c3cccc(Cl)c3)o2)ccc1Br
    0.65, 1.2
17: Cc1cc(=O)[nH]c(SCC2COC3(CCCCC3)O2)n1 (stereo not drawn)
    0.15, 68
18: O=C(NCc1ccccc1)C1C2C=CC3(CN(Cc4ccccc4Cl)C(=O)C13)O2 (stereo not drawn)
    -0.7, 0.005
19: COc1ccc(/C=C2\C=C(c3ccccc3)N(c3ccc4ccccc4c3)C2=O)cc1Br
    nt, 0.84
20: NS(=O)(=O)c1ccc(N2C(=O)C(=O)/C(=C(/O)c3ccccc3)C2c2ccccc2F)cc1 (stereo not drawn)
    nt, -0.29

Among those listed so far, two have a furan ring, fused or not.
Every second line gives: AID504770, CapD inh
10: CCOC(=O)c1c(-c2ccc(OC)cc2)oc2ccc(OCC)cc12
    -0.4, 73
16: Cc1nc(NC(=S)NC(=O)c2ccc(-c3cccc(Cl)c3)o2)ccc1Br
    0.65, 1.2

Continuation.
Every second line gives: AID504770, CapD inh
21: O=C(NC(=O)N1CCN(c2ccc(F)cc2)CC1)c1ccccc1
    -0.7, -0.27
22: O=C(NC(=O)c1ccccc1C(F)(F)F)NN1CCOCC1
    0, 0.46
23: COc1ccccc1NC(=O)C1Sc2nnc(-c3ccccc3)n2NC12CCCCC2 (stereo not drawn)
    0.9, 0.13
24: O=C(O)CCC(=O)N1N=C(c2ccc(Br)cc2)CC1c1cccc([N+](=O)[O-])c1 (stereo not drawn)
    nt, 0.47
25: C(=NN1CCN(Cc2ccccc2)CC1)c1ccccc1
    -0.65, -0.2
26: CCc1cc2c(=O)c(-c3nncn3-c3ccccc3)coc2cc1O
    2.3, nt
27: CCOC(=O)c1c(CN2CCCCC2)n(C2CCCCC2)c2cc(Br)c(O)cc12
    nt, -0.17
28: CCSc1nc2ccccc2n1C(=O)c1ccc(Cl)cc1
    1.6, -0.31
29: CCOC(=O)CC(=O)CSc1nc2cc(C(=O)N3CCC(C(N)=O)CC3)ccc2c(=O)n1-c1ccc(F)cc1
    nt, 0.29
30: N#C/C(=N\Nc1cccc(F)c1)C(=N)N1CCCCC1
    -0.35, -2.4
31: O=C(/C=C/c1ccc2ccccc2n1)OCC(=O)N1CCN(S(=O)(=O)c2ccccc2)CC1
    2.6, nt
32: CCOC(=O)N1CCC(NS(=O)(=O)c2cccs2)CC1
    -1.1, 0.1
33: Cc1[nH]n(-c2ccccc2)c(=O)c1C(=O)c1ccccc1F
    nt, -0.085
34: Cc1cc(=O)n2ccsc2n1
    nt, 0.65
35: N#CCc1ccc(Oc2ccc([N+](=O)[O-])cn2)cc1
    nt, 0.28
36: O=C(O)CN1CCCCC1
    0.5, nt
37: CCN1C(=O)CC(C(=O)Nc2ccccc2)SC1=Nc1ccccc1 (stereo not drawn)
    -0.4, -0.32
38: COc1ccc(C(=O)Nc2ccc3oc(-c4ccccc4Cl)nc3c2)cc1[N+](=O)[O-]
    nt, 0.07
39: CC1CCN(CCCNC(=O)C2CC(=O)N(CCc3ccccc3)C2)CC1 (stereo not drawn)
    -0.8, 0.6
40: Cc1cccc(N2CCN(c3nc4ccccc4n4nnnc34)CC2)c1C
    -1.2, 0.45
41: O=C1/C(=C/c2ccc(F)cc2F)Sc2ccccc21
    nt, -0.58
42: C#CCSc1nc2c(c(=O)[nH]1)C(c1ccccc1)CC(=O)N2 (stereo not drawn)
    0.4, nt
43: O=C(c1ccc(-n2nc(-c3ccccc3)cc2-c2ccccc2)cc1)N1CCC2(CC1)C(=O)NCN2c1ccccc1
    nt, -1.3
44: CCCNC1=C(c2ccc(OC)cc2)C(=O)c2ccccc21
    -0.35, 0.18
45: CCCCCCCNC(=O)c1cc(C(=O)c2cccc(C(F)(F)F)c2)c[nH]1
    nt, -0.28
46: O=S1(=O)CCN(C2CCCCCC2)CC1
    -0.15, 0.65
47: N#Cc1c2ncnc(-c3ccc(Cl)cc3)c2n2ccccc12
    -0.5, 1.8
48: O=C1N=c2ccccc2=C1N=Nc1c(O)[nH]c2ccccc12
    0.35, -0.04
49: O=C(Nc1cccc(-c2nc3ccccc3s2)c1)c1ncn[nH]1
    0.25, 0.56
50: CC1=C(C(=O)OC2CC(C(C)C)CCC2C)C(CC(=O)O)C(=O)N1 (stereo not drawn)
    0.4, 0.41
51: CCOC(=O)C1=C(CSc2nc3cc(C(=O)OCC)ccc3n2CC)NC(=O)NC1C (stereo not drawn)
    0.65, nt
52: Cc1noc2ncnc(N(CCO)c3ccccc3)c12
    -0.8, -0.48
53: COc1ccc(N2CCN(/C=C(\C#N)c3nc4ccccc4s3)CC2)cc1
    1.4, nt
54: CCCn1c(=O)c(/C(N)=N/O)nn(-c2cccc(C(F)(F)F)c2)c1=O
    nt, -0.14
55: Cc1ccccc1C(=O)NN(C)c1nc2ccccc2nc1C(F)(F)F
    nt, -0.2
56: C=C(C)CC1C(=O)N(S(=O)(=O)c2ccccc2Cl)N=C1C (stereo not drawn)
    0.55, -0.76
57: O=C(Nc1cc(F)ccc1F)c1c(O)c2cccc3c2n(c1=O)CCC3
    nt, 0.14
58: COc1ccc2cc(CCNC(=O)CC(C)C)c(=O)[nH]c2c1
    -0.55, 23
59: Cc1nc2cc(-c3ccccc3)nn2c(C)c1CCC(=O)NCCCc1ccccc1
    0.4, 24
60: CSCON1C(=O)CN(C(C)=O)C1c1ccc(Cl)cc1Cl (stereo not drawn)
    nt, 5.9
61: O=C(O)CSC1CC(=O)N(c2ccccc2)C1=O (stereo not drawn)
    0.4, -1.4
62: O=C1Nc2ccccc2C1(O)c1ccccc1 (stereo not drawn)
    nt, 2.4
63: Fc1ccc(N2CCN(c3ncc4c(n3)CCNC4)CC2)cc1
    -1.4, 0.23
64: CC(c1cccs1)N(C(=O)Nc1ccccc1)C1CCCCC1 (stereo not drawn)
    0.1, 0.06
65: Cc1nc(Cl)c(N)c(Cl)n1
    -0.2, nt
66: COc1ccc(CC(=O)NCC2COC3(CCCCC3)O2)cc1OC (stereo not drawn)
    -1, nt
67: CC(C)CC(NS(=O)(=O)c1ccc2c(c1)oc(=O)n2C)C(=O)NCc1ccco1 (stereo not drawn)
    -0.05, 0.42
68: O=C(Cn1cnc2c(oc3ccccc32)c1=O)N1CCCCCC1
    0.05, 0.56
69: O=C(O)CSc1ncnc2scc(-c3ccc(Br)cc3)c12
    0.15, -0.21
70: COc1cccc2c(C)cc(=O)[nH]c12
    1.8, 0.79
71: O=C1c2ccccc2C(=O)N1CCN1CCN(CCN2C(=O)c3ccccc3C2=O)CC1
    -0.15, 0.19
72: CCCCOc1ccc(-c2csc(-c3cc4cc(Cl)ccc4oc3=O)n2)cc1
    nt, -1.2
73: Cc1ccc2cccc(OCc3ccccc3)c2n1
    0.4, 13
74: CSc1sc(-c2ccn[nH]2)c(-c2cccs2)c1C#N
    -1, 0.73
75: COC(=O)C1=CN(Cc2ccc(F)cc2)C=C(C(=O)OC)C1c1cc(Br)c(OC)c(OC)c1
    nt, 59
76: Cc1c(Cl)cccc1NC(=O)c1cccnc1Cl
    -0.1, 0.28
77: O=C1N2c3ccccc3Sc3cccc(c32)C1(O)C(F)(F)F (stereo not drawn)
    nt, -0.81
78: COc1ccc(NC(=O)c2nn3c(c2Cl)NC(c2ccc(OC)c(OC)c2)CC3C(F)(F)F)cc1OC (stereo not drawn)
    nt, -0.18
79: O=c1oc2ccccc2cc1-c1nc(-c2ccccc2)c2cc(Cl)ccc2n1
    nt, 1.9
80: CN1CCN(S(=O)(=O)c2ccc(NC(=O)c3ccncc3)cc2)CC1
    -0.75, 0.76

Looked up above:
Under AID504770, `CC(C)CC(NS(=O)(=O)c1ccc2c(c1)oc(=O)n2C)C(=O)NCc1ccco1` (stereo not drawn) has -0.05
Under CapD inh, `O=c1oc2ccccc2cc1-c1nc(-c2ccccc2)c2cc(Cl)ccc2n1` has 1.9

(listing goes on)
Every second line gives: AID504770, CapD inh
81: COC(=O)C(=C(C)C)c1ccc(N(C)C)cc1
    0.2, 0.36
82: Cn1c(=N)n(CC(=O)O)c2ccccc21
    1.2, -0.23
83: CC1CCCN(CC(O)CN)C1 (stereo not drawn)
    0.85, nt
84: O=C(OCc1ccc(C(F)(F)F)c(F)c1F)N1CCC(O)(c2cccc(C(F)(F)F)c2)CC1
    nt, 0.33
85: CC1Sc2ccc(C(=O)N=c3sc4ccccc4n3C)cc2NC1=O (stereo not drawn)
    -0.2, nt
86: CC1CCc2sc(NC(=O)C(Cc3ccccc3)Cc3ccccc3)c(C#N)c2C1 (stereo not drawn)
    1.5, -0.39
87: CC(SC#N)C(=O)C12CC3CC(CC(C3)C1)C2 (stereo not drawn)
    -0.3, 0.7
88: O=C(O)CSCC(=O)Nc1ccccc1N1CCCCC1
    0.2, 0.05
89: COc1ccccc1-n1ccn(CC#N)c(=O)c1=O
    1.2, nt
90: CC(C)(C)NC(=O)CN1CCN(C(=O)CN2CCc3ccccc32)CC1
    -0.9, nt
91: CCOC(=O)N1CCN(c2ccc(NCc3cc4ccc(OC)cc4[nH]c3=O)cc2)CC1
    0.55, 0.99
92: O=C(CSc1nnc(-c2ccco2)o1)OCc1cc(=O)n2c(n1)sc1ccccc12
    1.8, nt
93: O=c1c2ccccc2oc2nc3ccn(Cc4ccncc4)c(=O)c3cc12
    nt, -0.1
94: Cc1nnc(SCC(=O)O)[nH]c1=O
    -0.8, -0.45
95: CCOc1cc(C2C(C(=O)OC3CCCC3)=C(C)NC3=C2C(=O)CC(c2cccs2)C3)ccc1O (stereo not drawn)
    nt, 11
96: O=C1OCCC1Sc1ncnc2c1cnn2-c1ccccc1 (stereo not drawn)
    -0.55, nt
97: CCOC(=O)C1CCN(C(=O)c2ccc3nc(-c4ccc(OC)c(OC)c4)c(-c4ccc(OC)c(OC)c4)nc3c2)CC1
    nt, -0.34
98: CCc1cccc2c(/C=C3/C(=O)N(C)c4ccccc43)cn(CC(=O)NC3CCCC3)c12
    0.3, 0.59
99: c1ccc(-c2cn[nH]c2)nc1
    nt, -0.055
100: O=C(Cn1ncc2c1-c1ccoc1CC2)NCc1ccccc1Cl
    -0.55, 0.39
101: Cc1cc2ncn(Cc3ccccc3C)c2cc1C
    -1.2, -0.055
102: COc1cc(-c2ccc(/C=C3\SC(NC(C)=O)=NC3=O)o2)c(OC)cc1Cl
    nt, 0.68
103: Cc1noc(/C=C/N(C)C)c1S(=O)(=O)N(CCc1ccccc1)Cc1ccccc1
    2.4, -4.3*
104: CCOC(=O)NC(=O)c1cn(Cc2ccco2)c(=O)n(Cc2ccccc2)c1=O
    0.2, 0.17
105: CC(C)NC(=O)c1sc2c(c1C(=O)Nc1cccnc1)CCCC2
    -0.15, 0
106: CCOC(=O)C1=C(C)NC(SCC(=O)N2CCOCC2)=C(C#N)C1c1ccco1 (stereo not drawn)
    1.1, nt
107: Cc1c(Cc2ccc3c(c2)OCO3)sc(NC(=O)c2ccco2)c1C(N)=O
    0.1, nt
108: CCN(CC)P(=O)(c1nc2ccccc2n1CC)N(CC)CC
    0.5, nt
109: O=[N+]([O-])c1ccc2c(c1)C=C1CCCCC1(N1CCOCC1)O2 (stereo not drawn)
    nt, -0.15
110: CCC1=NN(C(=O)c2cccc(OC)c2)C(O)(c2ccc(Br)cc2)C1 (stereo not drawn)
    nt, -0.43
111: O=C(NCCc1ccccc1)Oc1ccc(Cl)cc1
    -0.95, -0.78
112: CCOC(=O)C(=NCC1CCCO1)NNc1cc(Cl)ccc1Cl (stereo not drawn)
    -0.35, nt
113: CCn1c(C)nc2c1C(=O)c1ccccc1C2=O
    -0.95, -0.43
114: CN1CCC(N(C)Cc2csc(-c3ccc(Cl)cc3)n2)CC1
    -0.15, nt
115: O=C1Cc2ccccc2C(c2ccccc2Cl)N1 (stereo not drawn)
    nt, 0.52
116: NC(=O)CSc1nc2c(sc3ccccc32)c(=O)n1CCO
    0.1, 5.9
117: CCOc1cc(C2C(C(=O)OC)=CN(Cc3ccc(F)cc3)C=C2C(=O)OC)cc([N+](=O)[O-])c1O
    nt, 0.69

A second format for part of the listing above.
[20] NS(=O)(=O)c1ccc(N2C(=O)C(=O)/C(=C(/O)c3ccccc3)C2c2ccccc2F)cc1 (stereo not drawn)
  AID504770: nt
  CapD inh: -0.29
[17] Cc1cc(=O)[nH]c(SCC2COC3(CCCCC3)O2)n1 (stereo not drawn)
  AID504770: 0.15
  CapD inh: 68
[82] Cn1c(=N)n(CC(=O)O)c2ccccc21
  AID504770: 1.2
  CapD inh: -0.23
